VACV Venus inh – inhibitors of vaccinia virus (Venus reporter); Vaccinia virus Venus reporter expression, fluorescence; Potency, µM (highest dose often 36.5 µM), inactives show at the top dose activity change, negative = inhibition, hits mostly inhibitors; 0.46% of 330,000 active; active means well fitted inhibition curve with a large enough effect; inconclusive means small, poorly fitted or top-dose-only effect; inactive means no such curve, though single readings can be large or run the other way; tested in A549 cells; note: nearly all actives have a fitted effect of over 30% in size; inactives centre near -10
Vaccinia mCherry – inhibitors of vaccinia virus infection (mCherry reporter signal); Vaccinia virus mCherry reporter infection, fluorescence; about a quarter of the inactives have no number; Potency, µM (titrated, usually from 36.5 µM), inactives show top-dose activity change, negative = inhibition, usual class: inhibitors; 0.63% of 310,000 active; active = well fitted inhibition curve with a large enough effect; inconclusive = small, poorly fitted or top-dose-only effect; inactive = no such curve, though single readings can be large or run the other way; tested in A549 cells; note: nearly all actives have a fitted effect of over 35% in size; inactives centre near -10
* marks the source's active call; other numbers are inactive results; i = inactive; ? = inconclusive; · = no result given; & = joins results of further samples; [ ] = dose if it differs, or a comment. % is set by controls: 0 for no effect and ±100 for the full control effect; potency is the fitted concentration of half-maximal effect. Random draw from the library; any-hit rate near 0.87%.

SMILES	VACV Venus inh	Vaccinia mCherry
CC(=O)N1c2c(cc(Br)cc2S(=O)(=O)N2CCN(C(=O)c3ccco3)CC2)CC1C (configuration not stated)	-10%	-19%
CC(=O)Nc1nnc(SCc2cc(=O)c3cc(C)ccc3[nH]2)s1	-4%	-8%
O=C(NC(C(=O)O)c1ccccc1)c1ccc(S(=O)(=O)N2CCOCC2)cc1 (configuration not stated)	-3%	-14%
O=S(=O)(Nc1ccc(Cc2ccncc2)cc1)c1ccc(Cl)s1	-18%	-18%
Cc1ccc(C(=O)n2cnc3ccccc32)cc1C	-8%	i
COc1ccc(NC2=Nc3ccccc3N3C2=Nc2c(c(C)nn2-c2ccc(C)cc2)C3c2cccnc2)cc1 (configuration not stated)	-2%	-9%
Cc1cccc2sc(NC(=O)C3CCCN(S(=O)(=O)c4cccc5nonc45)C3)nc12 (configuration not stated)	-7%	·
COc1ccc(/C(O)=C/Sc2nnc(Cc3ccccc3)o2)cc1	-23%	?
CCc1cccc(NC(=O)C(CC)n2nc(C)c3sc4ccccc4c3c2=O)c1 (configuration not stated)	-17%	i
CCOc1ccc(NC(=O)c2cc3ccccc3cc2OC)cc1	?	-22%
COc1cccc(C(=O)Nc2ccc(C(=O)NCC3CCCO3)cc2)c1 (configuration not stated)	11%	4%
CC(Sc1nnc(C2CC2)n1C1CC1)C(=O)NCc1cccs1 (configuration not stated)	-9%	i
CC(=O)C1CCC2C3CCC4CC(O)CCC4(C)C3C(O)CC12C (configuration not stated)	-7%	-1%
O=C(NC1CCCCC1)c1ccc(N2CCCC2=O)cc1	-4%	i
O=C(CN(Cc1ccccc1F)C(=O)c1ccco1)NCc1ccc(F)cc1	-3%	-13%
Cc1cc(NC(=O)CSc2nc3c(cc2C#N)CCC3)no1	-3%	i
CCSc1oc(-c2ccco2)nc1S(=O)(=O)c1ccccc1	-13%	-2%
COc1ccc(CNC(=O)c2cc(-c3ccc(Br)s3)nc3ccccc23)cc1	-2%[7.34 µM]	-4%[7.34 µM]
N#C/C(=C\c1ccc(-c2ccc(C(=O)O)cc2)o1)C(=O)Nc1ccccc1C(=O)O	-5%	-19%
CCOc1ccccc1N(CC(=O)N1CCOCC1)S(=O)(=O)c1ccc(SC)cc1	12%	i
CC(C)c1ccc(NC(=O)CN(C)S(=O)(=O)c2ccc3c(c2)n(C)c(=O)c(=O)n3C)cc1	-3%	3%
O=c1[nH]c(=O)n(CCc2ccccc2)c(O)c1C=NC1CC1	-6%	i
C=CCn1c(CC#N)nnc1N1CCOCC1	-5%	-4%
Cc1cc(C(=O)O[C@H]2[C@H](Cc3ccccc3)NS(=O)(=O)[C@H]3C[C@@H]4C=C[C@]23O4)ccc1[N+](=O)[O-]	-24%	i
COC(=O)[C@H]1[C@@H](C)N(Cc2ccccc2)C(=O)N[C@H]1c1ccccc1	-25%	i
SMILES	VACV Venus inh	Vaccinia mCherry
CN1C(C(=O)Nc2ccccn2)=C(O)c2ccccc2S1(=O)=O	-24%&-7%	-11%&-9%
COCCCN=Cc1c(O)[nH]c(=S)[nH]c1=O	6%	6%
CC(C)(C)S(=O)N1Cc2cc(C(=O)Nc3ccc(-c4ccccc4)cc3)nc(-c3cccc(-c4cc5ccccc5o4)c3)c2[C@@H]1CCO (some centres not stated)	-9%	i
COc1ccccc1-c1c(C)nn2c(C(F)(F)F)cc(-c3ccccc3)nc12	-19%	-16%
CN(C)c1ccc(CNC(=O)c2cnc3sc(N4CCOCC4)nn3c2=O)cc1	-6%	-5%
CCC(C)(O)c1[nH]c2ccc(C#N)cc2c1C (configuration not stated)	-24%	i
COc1ccc(C2CCCCCN2C(=O)C2CCN(S(=O)(=O)c3ccc(C)cc3)CC2)cc1 (configuration not stated)	-28%	-12%
O=C(NCc1ccc2c(c1)OCO2)c1ccc2c(c1)N(Cc1cccc(Cl)c1)C(=O)c1ccccc1S2=O (configuration not stated)	-4%	7%
Cc1ccc(C)c(CN2C(=O)c3ccccc3Sc3ccc(C(=O)NC4CCCC4)cc32)c1	-5%	-7%
Cn1c(=N)n(CC(O)c2cccc3ccccc23)c2ccccc21 (configuration not stated)	-6%	·
CC(=O)OCc1cc2cc(C)ccc2[nH]c1=O	2%	·
CC/C(C)=C1/NC(=O)NC1=O	5%	-15%
COC(CNC(=O)C(=O)Nc1ccc2c(c1)N(S(=O)(=O)c1cccs1)CCC2)OC	?	-10%
COC(C[C@@H](O)[C@@H](C)[C@H](O)COCc1ccccc1)OC	-14%	i
CCn1nnnc1SCC(=O)N(C1CCCCC1)C1CCCCC1	?	?
O=C(NC(=S)Nn1cnnc1)c1ccccc1Cl	-6%	i
Cc1nc2ccc(NC(=O)c3ccco3)cc2s1	5%	i
C=CCc1cccc2cc(C(=O)Nc3ccc(NC(C)=O)cc3)c(=O)oc12	4%	0%
O=C(COC(=O)c1cc(=O)[nH]c2ccccc12)Nc1ccc(Cl)c(S(=O)(=O)N2CCOCC2)c1	-10%	-15%
Fc1ccc(Br)cc1SCCc1ccncc1	-16%	-7%
N#Cc1ccc(N2Cc3ccccc3C2=NC(=O)c2cccnc2Cl)cc1	-13%	0%
CC(Oc1ccc(C#N)cc1)C(=O)Nc1ccc(-n2cnnn2)cc1 (configuration not stated)	-5%	i
CCCCCCCCCCCCCCCCOCC(COP(=O)([O-])OCC[N+](C)(C)C)OC (configuration not stated)	-6%[3.33 µM]	-15%[3.33 µM]
CCc1ccc(CNC(=O)c2ccc(CS(=O)c3ccc(Br)cc3)o2)cc1 (configuration not stated)	-11%	-11%
OC(CCN1CCOCC1)(c1ccc(Cl)cc1)C1CCCCC1 (configuration not stated)	-20%	·
SMILES	VACV Venus inh	Vaccinia mCherry
CCCn1nc(C(=O)NNC(=O)c2cccc(S(=O)(=O)NC(C)C)c2)c2ccccc2c1=O	-10%	-1%
CCS(=O)(=O)N1CCC(C(=O)NCCc2ccc(OC)c(OC)c2)CC1	-6%	i
Cc1c(Cl)cccc1S(=O)(=O)N1CCC(C(=O)NNC(=O)C2CC2)CC1	-11%	-12%
Cc1ccc(C(=O)NC(C)C(c2cccs2)N2CCCC2)s1 (configuration not stated)	-2%	-12%
CCCN1C(=O)c2ccccc2NC1c1ccc(Br)cc1 (configuration not stated)	?	?
CCCc1nc2n[nH]c(N)c2c2c1CCC2	?	·
CCC(C)Sc1ccc(-c2nc3ccccn3c2NCc2ccccc2)cc1OC (configuration not stated)	?	?
Cc1cccc(N2CCN(c3ccc4cc(S(=O)(=O)N5CCC(C)CC5)ccc4n3)CC2)c1C	-2%	-10%
CCOc1ccc(S(=O)(=O)N(CC(=O)NCc2ccccc2OC)c2ccccc2)cc1	?	?
CC(=O)NCCc1nc2ccccc2[nH]1	-4%	-4%
CCCCCC(=O)Nc1ccc2oc(-c3ccncc3)nc2c1	-25%	i
COc1ccc2oc(=O)c(-c3nc(-c4cccs4)no3)cc2c1	-7%	-19%
COCCCNC(=O)CSc1nc2cc3c(cc2c(=O)n1CCCCCC(=O)NCc1ccc(OC)cc1)OCO3	-9%	-10%
CC1CCCCC1NC(=O)COC(=O)c1ccccn1 (configuration not stated)	-15%	i
COc1ccc(C(C(=O)NC(C)(C)C)N(C(=O)CNC(=O)c2cccs2)c2cccnc2)cc1OC (configuration not stated)	-18%	i
O=C(Cn1cnc2c(nnn2Cc2ccccc2F)c1=O)N1CCN(c2ccccc2)CC1	-13%	-28%
Cc1ccc(OCCNC(=O)C2CC(=O)N(c3ccc(C)cc3)C2)cc1 (configuration not stated)	0%	8%
Cc1ccc(C)c(NC(=O)c2cnn(-c3ccc(F)cc3F)c2C2CCNCC2)c1	-3%	-2%
COc1ccc(C(=O)N2CCc3cc(OC)c(OC)cc3C2COc2ccccc2OC)cc1 (configuration not stated)	-7%	-4%
CN(CCCCN1CCOCC1)Cc1nc(-c2ccc3c(c2)OCO3)no1	-9%	i
COc1ccc(CNc2nc(NCc3ccc(OC)cc3)n(S(C)(=O)=O)n2)cc1	-5%	·
Cc1cccc(-n2c3nc(=O)[nH]c(=O)c-3cc3c(Cl)cccc32)c1C	-13%	-16%
Cc1[nH]n(C)c(=O)c1N=Nc1ccc(S(C)(=O)=O)cc1	-6%	i
Cc1nc2ccc(C(=O)Nc3cccc(OCC(=O)N(C)C)c3)cn2c1N(C)CC1CCCCC1	-1%	9%
CC(C)c1ccc(N(C(=O)c2csnn2)C(C(=O)NC2CCCC2)c2cccnc2)cc1 (configuration not stated)	-5%	-14%
SMILES	VACV Venus inh	Vaccinia mCherry
COc1cc(Cl)c(NC(=O)CCS(=O)(=O)c2ccc3c(c2)NC(=O)CO3)c(OC)c1	-8%	-18%
CCN1C(=O)C(C)C=C(C)C=C1C (configuration not stated)	0%	i
COc1cc(CN2CCc3nc(Nc4ccc5c(c4)OCCO5)ncc3C2)cc(OC)c1OC	2%	-11%
CC(C)NC(=O)C1CCN(C(=O)c2cc3sccc3n2Cc2ccc(Cl)cc2)CC1	-23%	-6%
CCSc1nnc(CSc2ncccn2)n1C	-1%	i
Cc1cccc(C)c1OCCn1c(CCNC(=O)C2CCCCC2)nc2ccccc21	-7%[7.34 µM]	-18%[7.34 µM]
CCCCN(C)S(=O)(=O)c1ccc(C(=O)Nc2nnc(C3=COCCO3)o2)cc1	-5%	-20%
Nc1nonc1-n1nncc1-c1ccccc1	?	·
Clc1ccc(Cl)c(-c2nn3c(Cn4cnc5ccccc54)nnc3s2)c1	-2%	i
COc1cccc(C(=O)NC(c2ccccc2)C2CCCC2)c1 (configuration not stated)	0%	-11%
COc1cccc(-n2c(SCC(N)=O)nnc2-c2ccncc2)c1	-5%	i
C=CCN1C(=O)C2C3CC(=O)C(c4ccccc43)C2C1=O (configuration not stated)	-11%	i
Oc1ccccc1C1NN=C(c2ccccc2)S1 (configuration not stated)	-25%	-20%
CSc1ccccc1C(=O)Nc1c(C)cccc1C	-14%	-13%
CC1CCc2cc(F)ccc2N1C(=O)c1cccs1 (configuration not stated)	-19%	-7%
CC(C)C[C@H](NC(=O)c1[nH]cnc1C(=O)Nc1ccccc1F)C(=O)OC(C)(C)C	?	?
Cc1ccc(S(=O)(=O)NN=Cc2ccccc2Cl)cc1	-13%	-2%
O=C(NNC1CCN(Cc2ccccc2)CC1)c1ccccc1	-10%	-12%
Cc1cc(C)nc(CCNC(=O)c2cc(COc3ccc(F)cc3Cl)on2)n1	-8%	i
Cc1ccccc1CSCC(=O)NC1CCCC1	-23%	-13%
COc1ccc(-c2noc(CCC(=O)N3CCN(Cc4ccccc4)CC3)n2)cc1	-30%	·
CC(=O)Nc1ccc(Nc2nc(C)c([N+](=O)[O-])c(N(C)c3ccccc3)n2)cc1	-8%	-13%
O=c1[nH]c2c(c(=O)[nH]1)CCC2	-9%	i
CC(OC(=O)/C=C/c1ccccc1)C(=O)N1CCc2ccccc21 (configuration not stated)	-21%	i
COc1ccc(OC)c2sc(N(CCCN(C)C)C(=O)CCS(=O)(=O)c3ccccc3)nc12	?	?
SMILES	VACV Venus inh	Vaccinia mCherry
CCc1cc(-c2n[nH]c(=S)n2CC)cs1	-9%	-13%
COc1ccccc1NS(=O)(=O)c1ccc2c(c1)CCN2C(=O)CCC(=O)O	-24%	-4%
Cc1ccc(NC(=S)N2CCC(C(N)=O)(N3CCCCC3)CC2)c(C)c1	-25%	-12%
O=C(Nc1ccc(S(=O)(=O)Nc2ccc(F)cc2)cc1)c1ccc(CN2CCOCC2)cc1	-35%	-15%
CCOC(=O)c1ccc(NC(=O)CN(c2ccc(C)cc2)S(=O)(=O)c2c(C)nn(C)c2C)cc1	-7%	-4%
COc1ccc(CC(=O)Oc2ccc(F)c(F)c2)cc1S(=O)(=O)N1CCOCC1	-20%	-4%
NC(=O)NOCc1cccc(Cl)c1	-7%	-16%
COc1ccc(C(=O)NCc2ccc3c(c2)cc(C)n3C)cc1	-1%	-9%
Cc1cc2cc(CNC(=O)c3ccc(C)c([N+](=O)[O-])c3)ccc2[nH]1	-8%	i
O=C(O)CNC(=O)/C(=C\c1cccc([N+](=O)[O-])c1)NC(=O)c1ccco1	-5%	-14%
COc1ccc2cc(C3=CC(=O)CCC3)ccc2c1	-11%	-26%

3 compounds from above, arranged by heavy-atom count, ascending:
SMILES	VACV Venus inh	Vaccinia mCherry
CCN1C(=O)C(C)C=C(C)C=C1C (configuration not stated)	0%	i
COc1ccc(CNc2nc(NCc3ccc(OC)cc3)n(S(C)(=O)=O)n2)cc1	-5%	·
Cc1cccc(C)c1OCCn1c(CCNC(=O)C2CCCCC2)nc2ccccc21	-7%[7.34 µM]	-18%[7.34 µM]

Structures listed so far that contain an aryl thioether with sulfur outside any ring (13):
SMILES	VACV Venus inh	Vaccinia mCherry
CC(=O)Nc1nnc(SCc2cc(=O)c3cc(C)ccc3[nH]2)s1	-4%	-8%
COc1ccc(/C(O)=C/Sc2nnc(Cc3ccccc3)o2)cc1	-23%	?
CC(Sc1nnc(C2CC2)n1C1CC1)C(=O)NCc1cccs1 (configuration not stated)	-9%	i
Cc1cc(NC(=O)CSc2nc3c(cc2C#N)CCC3)no1	-3%	i
CCSc1oc(-c2ccco2)nc1S(=O)(=O)c1ccccc1	-13%	-2%
CCOc1ccccc1N(CC(=O)N1CCOCC1)S(=O)(=O)c1ccc(SC)cc1	12%	i
CCn1nnnc1SCC(=O)N(C1CCCCC1)C1CCCCC1	?	?
Fc1ccc(Br)cc1SCCc1ccncc1	-16%	-7%
CCC(C)Sc1ccc(-c2nc3ccccn3c2NCc2ccccc2)cc1OC (configuration not stated)	?	?
COCCCNC(=O)CSc1nc2cc3c(cc2c(=O)n1CCCCCC(=O)NCc1ccc(OC)cc1)OCO3	-9%	-10%
CCSc1nnc(CSc2ncccn2)n1C	-1%	i
COc1cccc(-n2c(SCC(N)=O)nnc2-c2ccncc2)c1	-5%	i
CSc1ccccc1C(=O)Nc1c(C)cccc1C	-14%	-13%

Assay outcomes (PubChem BioAssay)
